Env fusion inh: inhibitors of HIV Env-mediated cell fusion. HeLa-JRFL Env/CEM21 cell fusion, luciferase. 1.1% of 360,000 active. inhibition, % at 12.3 µM;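 active = mean replicate inhibition score of at least 50 and every replicate individually at or above 50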;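 also: 0% = plate neutral controls and 100% = maraviroc near 300 nM; one replicate is shown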
MT1-MMP act inh: blocks activation of human MT1-MMP. P50281. HT1080 RFP-PRO-GFP cells, GFP/RFP ratio fluorescence, overnight; percent of plate control window, DMSO zero. GFP/RFP ratio change, % at 20 µM. 0.061% of 360,000 active. AID 651647;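 active = GFP/RFP ratio change of at least 30% with cell ATP level not reduced by more than half and red fluorescence within 50% of control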; also: strong numbers were not always called active
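Read-out: GFP/RFP fluorescence ratio; Test system: RFP-PRO-GFP reporter HT1080 cells; Compound dosing: single-point 20 µM compound, 1% DMSO; Times: overnight compound exposure at 37 °C.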
Yeast UUG start: modulators of start codon recognition fidelity in yeast; S. cerevisiae UUG-firefly luciferase reporter, luminescence/redox ratio; activity score, % at 18.7 µM; 0.13% of 350,000 active; AID 602363;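 active = replicate mean at a twofold rise or more, about +100% in these data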;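 also: firefly luciferase made from a UUG start codon reports start codon fidelity; reporter light over untreated wells divided by growth signal over untreated wells; some hits fall short of that in this replicate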
PABP FP inh: PABP-poly(A) binding inhibition; P11940; PABP-poly(A) RNA binding, fluorescence polarization; inhibition, % at 35 µM; 1% of 290,000 active;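 active = 50% or more with normal probe brightness, or confirmed in later tests; about a fifth of its hits are not listed in these tables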;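 also: calls also rest on retests at 20 µM and on dose response follow-up; controls were probe without protein and protein plus probe with vehicle; some compounds called inactive have numbers as strong as hits; many hits fall short of the cut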
Target sequence (P11940 whole entry, looked up): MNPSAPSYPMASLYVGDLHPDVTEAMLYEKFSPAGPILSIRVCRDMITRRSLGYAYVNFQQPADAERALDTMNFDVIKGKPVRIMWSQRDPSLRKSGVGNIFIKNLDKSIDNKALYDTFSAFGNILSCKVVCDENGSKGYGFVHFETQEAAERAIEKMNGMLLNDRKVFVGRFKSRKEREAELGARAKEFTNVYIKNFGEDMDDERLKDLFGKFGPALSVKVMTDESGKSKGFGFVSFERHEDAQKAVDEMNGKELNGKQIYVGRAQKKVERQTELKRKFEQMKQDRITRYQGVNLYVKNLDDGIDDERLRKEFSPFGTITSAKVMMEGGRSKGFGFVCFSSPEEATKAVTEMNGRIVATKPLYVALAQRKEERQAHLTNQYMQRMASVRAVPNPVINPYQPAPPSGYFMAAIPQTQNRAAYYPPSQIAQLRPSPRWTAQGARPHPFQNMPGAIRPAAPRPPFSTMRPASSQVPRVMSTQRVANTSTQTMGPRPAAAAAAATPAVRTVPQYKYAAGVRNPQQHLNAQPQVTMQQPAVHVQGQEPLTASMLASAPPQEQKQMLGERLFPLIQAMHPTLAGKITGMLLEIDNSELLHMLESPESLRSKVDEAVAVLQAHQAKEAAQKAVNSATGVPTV
Rce1 inhib: yeast Ras-converting enzyme inhibition; yeast membranes, quenched prenylated peptide cleavage fluorescence; 0.27% of 290,000 active; Q03530; calls only;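 active = fall in fluorescence gain of 50% or more versus controls, with final raw signal at or below 3038400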;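 also: plate controls were neutral control wells for no effect and wells lacking membranes for full effect; tested at 10 µM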
Target sequence (Q03530 whole entry, looked up): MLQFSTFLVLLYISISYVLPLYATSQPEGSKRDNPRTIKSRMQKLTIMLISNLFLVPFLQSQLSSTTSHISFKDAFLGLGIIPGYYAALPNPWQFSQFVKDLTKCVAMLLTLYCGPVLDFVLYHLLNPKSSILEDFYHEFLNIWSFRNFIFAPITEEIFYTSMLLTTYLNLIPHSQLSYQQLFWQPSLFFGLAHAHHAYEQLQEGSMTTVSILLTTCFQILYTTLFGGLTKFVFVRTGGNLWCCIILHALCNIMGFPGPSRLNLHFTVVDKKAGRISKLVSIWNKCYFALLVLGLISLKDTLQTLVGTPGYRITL
eIF4H FP inh: inhibitors of RNA binding by human eIF4H; eIF4H fluorescence polarization binding assay; inhibition, % at 35 µM; 0.94% of 290,000 active; AID 2012;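 active = 50% or more with normal probe brightness, or confirmed in later tests; about a fifth of its hits are not listed in these tables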;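 also: calls also rest on retests at 20 µM and on dose response follow-up; 0% = protein and probe with vehicle and 100% = probe without protein; strong numbers were not always called active; many hits fall short of the cut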
CSC inhib: cancer stem cell inhibition. cancer stem cell-like cells viability, luminescence. inhibition, % at 7.5 µM. 1.1% of 300,000 active. AID 2717;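 active = mean at 75% or more and at least half the replicates too; tested in HMLE shEcad cells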;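 also: 0% = median of negative and 100% = median of positive control wells; the first replicate is given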
MT1-MMP act inh RFP: recorded beside MT1-MMP act inh, whose call it bears; RFP signal change, %; measured here: RFP expression control read;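 0 = vehicle wells; hits needed this value within 50% of zero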
Active calls of the source: *; i = inactive; x = not tested or not shown; & = joins results of further samples. Some of the compounds tested. The share of hits here may be higher or lower than overall.

SMILES	Env fusion inh	MT1-MMP act inh	MT1-MMP act inh RFP	Yeast UUG start	PABP FP inh	Rce1 inhib	eIF4H FP inh	CSC inhib
C[C@@]12C(=O)N(Cc3ccccc3)CC(=O)N1[C@H]1c3cc(Cl)ccc3OC[C@@H]1[C@@H]2c1ccccc1	61*	-2	-7	-1	x	x	x	-8
COc1ccc(C)cc1NC(=O)C(NCC1CCCO1)c1ccccc1 (configuration not stated)	9	7	9	-5	-7	i	1	-16
Cc1cc(C)n(-c2ccc(C(=O)Nc3ccc4c(c3)OCO4)cc2)n1	x	2	-4	-12	6	i	5	x
CC(=O)Nc1cc(=O)c2cccnc2[nH]1	-8	-12	3	-4	x	x	x	x
Cc1ccc(OCC(=O)NNC(=O)c2cc3ccccc3o2)cc1	-36	-3	-1	-12	-8	i	-5	-4
CCc1ccc2c(c1)C(c1ccncc1)=NNC(c1ccccc1)=N2	-8	-1	-1	x	-11	i	-12	3
Cc1ccc(NC(=O)COC(=O)[C@@H]2CC(O)CN2S(=O)(=O)c2ccc3c(c2)OCCO3)cc1 (some centres not stated)	x	4	3	-35	x	x	x	1
COc1ccc(Cl)cc1Cn1c(C)c(C(=O)NCc2cccc([N+](=O)[O-])c2)sc1=O	-12	5	-10	-8	x	x	x	x
CC(=O)c1ccc(-c2cccc(-c3cc(=O)oc4ccc(C(C)(C)C)cc34)c2)cc1	-29	-15	-16	-7	x	x	x	x
O=C(Cn1cnc2c(nnn2-c2cccc(F)c2)c1=O)Nc1ccc2c(c1)OCCO2	3	0	3	12	-20	i	-5	-12
COc1ccc(S(=O)(=O)N(C)C[C@@H]2OCc3cnnn3CCCC(=O)N([C@@H](C)CO)C[C@@H]2C)cc1	-15	2	3	-7&8	x	x	x	x
CC(=O)N1c2ccc(S(=O)(=O)N3CCC(C(=O)Nc4cccc(Cl)c4)CC3)cc2CC1C (configuration not stated)	19	0	-28	17	x	i	x	7
CCn1c2ccccc2c2cc(NC(=O)CSc3nnc(-c4ccccc4)o3)ccc21	x	0	-2	x	-5	i	-5	-4
O=C(NCc1ccc2c(c1)OCO2)c1ccc(CSCc2ccc(Cl)cc2)o1	3	-2	3	x	-2	i	4	-11
Cc1ccccc1S(=O)(=O)N(CC(O)CN1CCCCC1)c1ccccc1 (configuration not stated)	-15	1	6	-14	-4	i	4	-5
CC1CCCCC1NC(=O)Cn1ncc2ccccc21 (configuration not stated)	10	-1	0	5	5	i	-7	-1
Cc1ccnc2nc(C(=O)Nc3nc4ccccc4s3)nn12	-18	-8	-2	-35	-1	i	0	-10
COc1ccccc1C(=O)Nc1ccccc1N1CCN(C(=O)c2ccc(Cl)cc2)CC1	31	-9	-8	-1	3	i	-6	14
O=C(Nc1cc(C(F)(F)F)ccc1Cl)C(Sc1n[nH]c(=O)[nH]c1=O)c1ccccc1 (configuration not stated)	16	10	-3	1	-1	i	-1	19
COc1ccccc1NC(=S)NCCc1ccc(S(N)(=O)=O)cc1	11	3	3	-22	-8	i	-5	32

Part of the list above in order of molar mass, lowest first.
SMILES	Env fusion inh	MT1-MMP act inh	MT1-MMP act inh RFP	Yeast UUG start	PABP FP inh	Rce1 inhib	eIF4H FP inh	CSC inhib
CC1CCCCC1NC(=O)Cn1ncc2ccccc21 (configuration not stated)	10	-1	0	5	5	i	-7	-1
Cc1ccnc2nc(C(=O)Nc3nc4ccccc4s3)nn12	-18	-8	-2	-35	-1	i	0	-10
Cc1ccc(OCC(=O)NNC(=O)c2cc3ccccc3o2)cc1	-36	-3	-1	-12	-8	i	-5	-4
CCc1ccc2c(c1)C(c1ccncc1)=NNC(c1ccccc1)=N2	-8	-1	-1	x	-11	i	-12	3
COc1ccccc1NC(=S)NCCc1ccc(S(N)(=O)=O)cc1	11	3	3	-22	-8	i	-5	32
Cc1ccccc1S(=O)(=O)N(CC(O)CN1CCCCC1)c1ccccc1 (configuration not stated)	-15	1	6	-14	-4	i	4	-5
O=C(NCc1ccc2c(c1)OCO2)c1ccc(CSCc2ccc(Cl)cc2)o1	3	-2	3	x	-2	i	4	-11
O=C(Cn1cnc2c(nnn2-c2cccc(F)c2)c1=O)Nc1ccc2c(c1)OCCO2	3	0	3	12	-20	i	-5	-12
CCn1c2ccccc2c2cc(NC(=O)CSc3nnc(-c4ccccc4)o3)ccc21	x	0	-2	x	-5	i	-5	-4
COc1ccc(Cl)cc1Cn1c(C)c(C(=O)NCc2cccc([N+](=O)[O-])c2)sc1=O	-12	5	-10	-8	x	x	x	x
O=C(Nc1cc(C(F)(F)F)ccc1Cl)C(Sc1n[nH]c(=O)[nH]c1=O)c1ccccc1 (configuration not stated)	16	10	-3	1	-1	i	-1	19
C[C@@]12C(=O)N(Cc3ccccc3)CC(=O)N1[C@H]1c3cc(Cl)ccc3OC[C@@H]1[C@@H]2c1ccccc1	61*	-2	-7	-1	x	x	x	-8
Cc1ccc(NC(=O)COC(=O)[C@@H]2CC(O)CN2S(=O)(=O)c2ccc3c(c2)OCCO3)cc1 (some centres not stated)	x	4	3	-35	x	x	x	1
COc1ccc(S(=O)(=O)N(C)C[C@@H]2OCc3cnnn3CCCC(=O)N([C@@H](C)CO)C[C@@H]2C)cc1	-15	2	3	-7&8	x	x	x	x

Remaining list, next part:
SMILES	Env fusion inh	MT1-MMP act inh	MT1-MMP act inh RFP	Yeast UUG start	PABP FP inh	Rce1 inhib	eIF4H FP inh	CSC inhib
Cc1cnc(C(=O)OCC(=O)c2cc(C)n(CCc3ccc(F)cc3)c2C)cn1	-12	1	1	-4	x	x	x	x
CCCCCCn1c(N2CCCC2)nc2c1c(=O)[nH]c(=O)n2C	-102	-3	-4	-9	1	i	1	-5
CCN(CC)S(=O)(=O)c1ccc(OC)c(NC(=O)OCc2ccccc2)c1	14	1	0	-16	-6	i	-5	9
O=C(N/C(=C/c1ccc(Br)cc1)c1nc2ccccc2[nH]1)c1ccco1	x	2	1	-23	8	i	0	-10
O=C(Cn1sc2ccccc2c1=O)Nc1ccc(Cl)cc1	19	-1	1	-15	x	x	x	x
Nc1nc(-c2cccc(NS(=O)(=O)c3ccccc3)c2)cs1	x	2	-1	-18	3	i	-18	-4
CCc1nnc(NCC(=O)N2CCc3ccccc32)s1	x	4	10	-9	7	i	-5	-1
CCNC(=O)c1ccccc1-c1nc(-c2ccccc2OC)no1	-7	-2	-1	x	-5	i	-9	1
CN(C)CCN1CCN(C2CN(Cc3cn(Cc4ccccc4C(F)(F)F)nn3)S(=O)(=O)C2)CC1 (configuration not stated)	-17	0	2	41	x	x	x	x
CC1CCc2c(nc3ncnn3c2N2CCN(c3ccccc3F)CC2)C1 (configuration not stated)	-7	3	6	-16	-3	i	7	-16
CC1CCN(C(=O)c2cccc(NC(=O)c3cccs3)c2)CC1	24	-2	-1	-12	-2	i	-7	-4
CCN(CC)CCN1C(=O)C(=O)/C(=C(/O)c2ccc(C)cc2)C1c1cccnc1 (configuration not stated)	-5	0	3	-9	11	i	5	-16
COc1cc(C(Nc2ccccn2)c2ccc3ccc(C)nc3c2O)cc(OC)c1O (configuration not stated)	x	1	-12	-1	-4	i	9	70
Cc1ccccc1OCC(=O)OCC(=O)NC1CCCCCC1	-20	2	3	9	x	x	x	x
CCOc1ccc(S(=O)(=O)NCCC(=O)N2CCC(Cc3ccccc3)CC2)cc1	9	2	-12	3	6	i	2	x
CCN(C[C@H]1N[C@@](CC)(C(=O)OC)[C@H]2C(=O)N(Cc3ccccc3)C(=O)[C@@H]12)S(=O)(=O)c1ccc(C)cc1	81*	2	-1	-5	x	x	x	-4
CSc1cccc(NC(=O)CCNC(=O)c2ccco2)c1	-8	-1	-2	x	-5	i	1	7
Fc1ccc(Cn2nnnc2CN2CCN(C3CCCCC3)CC2)cc1	x	12	-2	-10	-8	x	-5	x
CCCn1c(N)c(N(CCOC)C(=O)c2ccc(F)cc2F)c(=O)[nH]c1=O	4	0	5	x	2	i	-9	-1
Cc1ccc(NC(=O)c2ccc(S(=O)(=O)N3CCCCCC3)cc2)nc1	-11	-9	-15	-15	x	i	x	-2
COc1cc(C(=O)OCC(=O)N2CCCCC2C)ccc1OCc1c(C)noc1C (configuration not stated)	8	3	-1	x	17	i	2	-5
Cc1cc(NC(=O)c2c(-c3c(F)cccc3Cl)noc2C)no1	5	-1	-1	-12	-7	i	0	1
O=C(Nc1ccccn1)c1csc2c1CCCC2	-55	0	3	x	-12	i	-11	-8
C=CCn1c(SCC)nc2sc3c(c2c1=O)CCc1ccccc1-3	-52	-12	-5	-24	6	i	-16	58
CC(C)CC(C(=O)NC(C)(C)C)N(Cc1cccs1)C(=O)c1snc(C(N)=O)c1N (configuration not stated)	15	0	0	x	7	i	0	4
CC(NC(=O)/C(=C/c1cccc([N+](=O)[O-])c1)NC(=O)c1ccco1)C(=O)O (configuration not stated)	-19	-4	5	-3	6	i	2	x
COc1ccc(O)c(/C=N/NC(=O)c2c(C)nnn2-c2nonc2N)c1	0	4	3	x	9	i	-1	x
Cc1ccc(S(=O)(=O)N(C)C)cc1NC(=O)COC(=O)C1CCCC1	-1	-1	3	-1	x	i	x	5
O=C(NCc1ccccn1)c1ccc(OC2CCN(Cc3ccc(CO)o3)CC2)cc1	2	-3	0	-29	-2	i	-2	4
CC(=O)c1c(C)[nH]c(C(=O)NCCN2CCC(C)CC2)c1C	-66	5	4	-3	6	i	-3	11
NS(=O)(=O)c1cc(C(=O)OCC(=O)c2ccc3c(c2)OCCO3)ccc1Cl	-5	0	-1	x	-1	i	0	-4
CCc1ccc(OCc2ccc(C(=O)NCc3ccccn3)o2)cc1	x	7	7	-17	17	i	-12	10
CC(=O)c1ccc(S(=O)(=O)N2CCC(c3nnc(SCCN4CCCC4)n3C)CC2)cc1	5	5	2	-18	2	i	-7	18
COc1cc(C2CC(=O)Oc3c2c(=O)n(C)c2ccccc32)cc(OC)c1OC (configuration not stated)	-1	-3	0	x	-6	i	-9	-2
O=C(CC(C(=O)N1CCc2ccccc21)n1ccnc1)N1CCc2ccccc2C1 (configuration not stated)	26	-4	1	-17	-4	i	-9	6
NC(=O)c1cccc(Nc2nc(C(N)COCc3ccccc3)cs2)n1 (configuration not stated)	24	-2	1	-51	x	x	x	x
Cc1ccc(C2=NN(CC(=O)NCCN(CC(C)C)CC(C)C)C(=O)CC2)cc1	17	-1	1	-4	1	i	5	1
O=C(NCCCC1CCCC1)C1CCC(=O)N(Cc2ccccc2F)C1 (configuration not stated)	2	3	5	17	7	i	1	5
CN(C)/C=N/c1nc(-c2ccc3c(c2)OCO3)cs1	-38	2	7	-9	-1	i	-5	-10
O=C(Nc1cccc(C(F)(F)F)c1)Nc1ccon1	-91	-5	-4	-14	-8	i	-3	-4
Cc1nn(CC(=O)Nc2ccc(N3CCOCC3)cc2)c(C)c1Br	3	2	3	-10	4	i	-8	-11
Cc1ccc(-n2cc(C(=O)O)c(=O)cc2C)c(C)c1	1	1	5	-16	14	x	3	-1
CCCCCCCCc1c(O)nc(-n2[nH]c(C)c(CCO)c2=O)[nH]c1=O	18	3	6	x	-3	i	15	-4
COc1ccc(C[C@H]2CN3C(=NC[C@@H]3Cc3ccc(O)cc3)N2CCNC(=O)c2ccc(C)c(Br)c2)cc1	-142	-1	-7	-13	-21	i	-15	5
